Screens from PubChem BioAssay.
D2 PAM = human D2 receptor positive allosteric modulation | DiscoveRx D2 beta-arrestin cells, luminescence, 90 min; 100% = 57 uM dopamine signal | P14416 | actives 0.23% (n = 360,000) | potentiation, % (concentration not given with the values); active = potentiation of 50% or more; inconclusive = 30% to 50%; inactive = 30% or less;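 also: compound concentration not given in the record; tested on top of an EC20 dose of dopamine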
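PathHunter beta-arrestin assay in DiscoveRx D2 cells. Compounds were added with an EC20 of dopamine (50 nM final) for 90 min at 37 deg C. Luminescence was read 1 h after detection reagent, with 57 uM dopamine as the EC100 control.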
TRPML1 ag = activates the human TRPML1 channel | AID 624414 | activation, % (concentration not given with the values) | TRPML1-expressing cells, Ca2+ dye fluorescence, FDSS; host cell line not named in the record; reference of the full effect not given here | Q9GZU1 | actives 0.12% (n = 410,000); in the data active = activation above about 50%; inconclusive = about 30% to 50%; inactive = below about 30%; also: 0% is about no effect; the text of the record puts the active cut at 80%
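TRPML1-DL cells, Tet-induced overnight (~16 h, 37 degrees C), loaded 45-90 min at room temperature with Ca8 no-wash calcium dye plus quencher. FDSS fluorescence: 10 s baseline, compound pin-transfer, 110 s agonist read, then EC80 54-4 (4uM final) and 110 s antagonist read.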
Six1-Eya2 inh = Six1/Eya2 interaction inhibition | Q15475+O00167 | AlphaScreen GST-Six1/His-Eya2 binding, biochemical; active compounds read low; control for the full effect not named in the record | activity change, % (no concentration beside the values) | actives 0.56% (n = 360,000); in the data active = activity change below about -65%; inconclusive = about -30% to -65%; inactive = above about -30%; also: % is scaled to controls: 0 for no effect and ±100 for the full control effect
Target sequence (O00167 whole entry, looked up): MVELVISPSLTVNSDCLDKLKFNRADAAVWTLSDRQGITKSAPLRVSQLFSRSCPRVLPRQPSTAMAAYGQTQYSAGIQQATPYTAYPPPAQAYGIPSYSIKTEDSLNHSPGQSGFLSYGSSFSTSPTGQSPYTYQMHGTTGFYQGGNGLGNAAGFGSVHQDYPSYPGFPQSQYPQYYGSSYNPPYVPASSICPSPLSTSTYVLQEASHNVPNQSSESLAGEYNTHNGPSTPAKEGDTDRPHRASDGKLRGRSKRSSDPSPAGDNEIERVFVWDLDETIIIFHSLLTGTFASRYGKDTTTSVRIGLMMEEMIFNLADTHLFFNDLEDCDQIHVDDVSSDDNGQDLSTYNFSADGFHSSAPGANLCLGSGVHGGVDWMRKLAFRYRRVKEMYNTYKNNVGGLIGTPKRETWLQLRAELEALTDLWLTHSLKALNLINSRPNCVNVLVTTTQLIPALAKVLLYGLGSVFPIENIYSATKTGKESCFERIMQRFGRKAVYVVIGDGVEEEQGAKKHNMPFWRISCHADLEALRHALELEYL
Target sequence (Q15475 whole entry, looked up): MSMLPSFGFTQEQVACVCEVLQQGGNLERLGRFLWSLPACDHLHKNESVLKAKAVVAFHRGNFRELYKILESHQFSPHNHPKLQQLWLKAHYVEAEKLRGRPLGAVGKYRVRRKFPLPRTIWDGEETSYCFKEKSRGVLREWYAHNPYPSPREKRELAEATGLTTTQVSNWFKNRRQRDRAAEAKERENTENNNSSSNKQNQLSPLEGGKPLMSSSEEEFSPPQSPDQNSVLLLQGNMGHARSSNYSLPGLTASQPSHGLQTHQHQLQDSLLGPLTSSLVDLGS
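Compounds are tested against tagged Six1 and Eya2 proteins bridged by glutathione donor and nickel acceptor beads; after a one-hour incubation at 37 °C without light, AlphaScreen emission is recorded.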
D2 ag = human D2 receptor agonism in beta-arrestin assay; P14416; activation, % (concentration not given with the values); DiscoveRx PathHunter D2 beta-arrestin, luminescence, 90 min; 100% = 57 uM dopamine signal; actives 0.084% (n = 360,000); AID 624465; in the data active = activation above about 40%; inconclusive = about 15% to 40%; inactive = below about 15%; also: compound concentration not given in the record; the text of the record calls up to 30% inactive
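Agonist mode: compounds alone added to overnight-plated D2 PathHunter cells for 90 min at 37 C, with 57 uM final dopamine (EC100) defining full response. Beta-arrestin recruitment detected by chemiluminescent reagent, read after 1 h at ambient temperature.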
TRPML1 blocker = inhibitors of human TRPML1 channel; actives 0.02% (n = 390,000); Q9GZU1; TRPML1-inducible cells, Ca2+ dye fluorescence, FDSS; active compounds read low; inhibition of EC80 agonist-evoked calcium signal; activity change, negative = inhibition, % (test concentration not listed); AID 624415; in the data active means activity change below about -50%; inconclusive means about -30% to -50%; inactive means above about -30%;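 also: stimulus is agonist 54-4 at its EC80 concentration; % is scaled to controls: 0 for no effect and ±100 for the full control effect; compound concentration not given in the record; the text of the record puts the active cut at -80%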
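Tet-induced TRPML1-DL cells loaded with Ca8 no-wash calcium dye were read kinetically on FDSS. Compound addition was followed by EC80 agonist 54-4 (4 uM final); inhibition was read over 110 s.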
PINK1 modulator = modulators of PINK1 expression | PINK1 immunofluorescence, high-content cytometry, 24 h | AID 624263 | Potency, µM (titrated, usually from 76.6 µM), inactives show top-dose activation (PINK1 increase), most hits filed as activators | actives 0.2% (n = 410,000); active = well fitted activation curve with a large enough effect; inconclusive = small, poorly fitted or top-dose-only effect; inactive = flat fitted curve, though single readings scatter; cell line not stated here;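 also: potency is read from the fitted curve at half-maximal effect; % of control where 0% means no effect; nearly all actives have a fitted effect of over 65% in size; a mitochondrial uncoupler was the plate control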
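Stable cell line treated 24 h with compounds at 5 concentrations (CCCP controls), then fixed and immunostained for PINK1 plus nuclear and cell stains; PINK1 immunofluorescence quantified by laser-scanning microplate cytometry.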
Starred values were filed as active, the others as inactive; ? = inconclusive; · = no result given; & = joins results of further samples; [ ] = another dose, or the depositor's remark.

The first four records (preview)
SMILES	D2 PAM	TRPML1 ag	Six1-Eya2 inh	D2 ag	TRPML1 blocker	PINK1 modulator
O=C(CSc1nc2ccccc2n1CC(=O)NCc1ccccc1)NCc1ccco1	0	0.1	-2	0.3	25	3.8%[38.3 µM]
O=C(Nc1cccc(F)c1)c1cccc(S(=O)(=O)N2CCOCC2)c1	-2	0.1	-1	0.4	-19	-2.1%[38.3 µM]
CCOC(=O)C1(Cc2cccc(F)c2)CCN(C(=O)C2CCCO2)CC1 (configuration not stated)	-2	-0.2	-1	0.1	45	0.6%
Cc1c(CN2CCCC(CO)(Cc3cccc(Cl)c3)C2)cnn1C (configuration not stated)	-24	-0.5	-2	-5.9	-7	-0.3%

The whole of this part, previewed entries included:
SMILES	D2 PAM	TRPML1 ag	Six1-Eya2 inh	D2 ag	TRPML1 blocker	PINK1 modulator
O=C(CSc1nc2ccccc2n1CC(=O)NCc1ccccc1)NCc1ccco1	0	0.1	-2	0.3	25	3.8%[38.3 µM]
O=C(Nc1cccc(F)c1)c1cccc(S(=O)(=O)N2CCOCC2)c1	-2	0.1	-1	0.4	-19	-2.1%[38.3 µM]
CCOC(=O)C1(Cc2cccc(F)c2)CCN(C(=O)C2CCCO2)CC1 (configuration not stated)	-2	-0.2	-1	0.1	45	0.6%
Cc1c(CN2CCCC(CO)(Cc3cccc(Cl)c3)C2)cnn1C (configuration not stated)	-24	-0.5	-2	-5.9	-7	-0.3%
COc1ccc(C(=O)c2c(-c3ccc(OC)cc3)oc3ccc(-c4ccc(OC)nc4)cc23)cc1	-35	-0.8	1	-0.2	-1	5.5%
CCN(CC)S(=O)(=O)c1cccc(NC(=O)C2SC(=Nc3ccc(C)cc3C)C(C(=O)NCC3CCCO3)=C2N)c1 (configuration not stated)	-11	-0.4	0	-3.9	6	25µM*
c1ccc2c(c1)ncn2Cc1nnc2sc(-c3ccc4c(c3)OCO4)nn12	17	-0.5	-4	0.5	1	-0.5%
COc1cccc(C(=O)CN2C(=O)C(C)(C)Oc3ccc(C(=O)N4CCOCC4)cc32)c1	-7	-1.3	-22	-6.7	9	1.1%
CCC1CCCCN1CC(=O)c1c(C)[nH]c2ccc(OC)cc12 (configuration not stated)	17	0.6	-8	4.2	13	-0.6%
O=C(Cn1c(=O)c2cccn2c2ccccc21)NCCc1ccccc1	-10	0.0&1.3	7	-5.4	-5&-7	3.1%&-0.7%
CC1(C)C2CCC1(C)C(OC(=O)CNc1ccccc1)C2 (configuration not stated)	-9	·	3	-1.8	·	16%
Cc1ccccc1NC(=O)COC(=O)c1c[nH]c(=O)[nH]c1=O	-10	-0.7	3	-4.0	-1	2.3%
C=CCn1c(SCC(N)=O)nc(C)cc1=O	1	-0.4	-2	-0.8	-14	-1.1%
Fc1ccc(-c2csc(NC(=S)Nc3ccccc3)n2)cc1	-15	0.8	2	1.3	23	11%
CCOC(=O)C1CCCN(C(=O)c2cc(Cl)ccc2NC(=O)C2=C(C)OCCS2)C1 (configuration not stated)	-29	0.7	-14	-1.3	22	-0.4%
COCC(C)NC(=O)c1oc2c(c1C)C1(CCC2)SCCS1 (configuration not stated)	15	2.4	11	-1.5	6	-0.6%
COCCN(C(=O)Cc1cccs1)c1nnc(-c2cccnc2)s1	-7	1.2	0	-1.4	24	0.2%
CC(O)(c1ccccc1)c1nc(-c2cccc(F)c2)cs1 (configuration not stated)	-6	0.5	4	-5.6	·	11%
COc1ccc(N2CCN(S(=O)(=O)c3ccc(Cl)c(C(F)(F)F)c3)CC2)cc1	-7	-0.7	-3	-2.0	1	22%[38.3 µM]
COc1ccc(CCNCc2ccc(OCC(=O)N3CCCCC3)c(OC)c2)cc1OC	-4	-0.4	10	-2.0	-6	1.3%
CCn1c(SCC(=O)Nc2ccc(OC)cc2)nc2nc3c(cc2c1=O)CCCC3	-2	1.0	-16	6.2	12	2.5%
CC1(c2ccccc2)CC(C)(C)N(C(=O)c2cc([N+](=O)[O-])cc([N+](=O)[O-])c2)c2ccccc21 (configuration not stated)	?	2.9	?	6.2	0	-0.5%
Cc1ccc(NC(=O)CN2C(=O)CCc3cc(S(=O)(=O)N4CCCCC4)ccc32)cc1C	·	-0.6	·	·	30	0.6%
O=C(CN1C(=O)c2ccccc2C1=O)NCC(=O)OCC(=O)c1ccc(Cl)cc1	-9	-0.1	6	0.8	-9	-0.1%
CCOC(=O)N1CCN(C(=O)CCc2ccc(S(=O)(=O)NCCc3ccccc3)cc2)CC1	-4	0.2	3	0.3	27	-8.2%[38.3 µM]

Entries of single compounds, quoted from the list. Values in the order: D2 PAM | TRPML1 ag | Six1-Eya2 inh | D2 ag | TRPML1 blocker | PINK1 modulator
Listed for `CCOC(=O)C1CCCN(C(=O)c2cc(Cl)ccc2NC(=O)C2=C(C)OCCS2)C1` (configuration not stated) → -29 | 0.7 | -14 | -1.3 | 22 | -0.4%
Listed for `Cc1ccccc1NC(=O)COC(=O)c1c[nH]c(=O)[nH]c1=O` → -10 | -0.7 | 3 | -4.0 | -1 | 2.3%
Listed for `O=C(CN1C(=O)c2ccccc2C1=O)NCC(=O)OCC(=O)c1ccc(Cl)cc1` → -9 | -0.1 | 6 | 0.8 | -9 | -0.1%

Next part
SMILES	D2 PAM	TRPML1 ag	Six1-Eya2 inh	D2 ag	TRPML1 blocker	PINK1 modulator
O=C(COC(=O)CCS(=O)(=O)c1ccccc1)Nc1ccc(N2CCCCC2)cc1	-3	-0.5	1	-2.9	-6	0.4%
COc1ccccc1N1C(=NC(=O)C(C)Oc2ccccc2)SC2CS(=O)(=O)CC21 (configuration not stated)	-11	-0.5	7	0.1	16	-0.5%
Cc1cccc(N2CCN(C3CCCCC3NS(=O)(=O)c3ccccc3)CC2C)c1 (configuration not stated)	-9	0.2	-22	3.6	-4	-0.9%
O=C(Cc1cccc2ccccc12)NNC(=O)c1cccs1	-12	1.4	1	0.3	-12	-1.2%
Nc1nc(-c2ccc(Cl)cc2)cn1N	-6	-0.2	-19	-3.4	1	2.7%
CCCc1c(C(=O)Nc2ccc(C(F)(F)F)cc2)cnn1-c1ccccc1	-13	1.0	7	-2.8	13	14%
CCNC(=O)C/C(C)=N/NC(=O)C(=O)Nc1ccc(CC)cc1	-4	3.9	-3	-4.7	19	2.5%
Cc1ccc(S(=O)(=O)Oc2ccccc2[N+](=O)[O-])cc1	-10	1.5	-27	0.0	9	28%
Clc1ccccc1CN1CCC(Cc2ccccc2)CC1	-27	1.4	5	-2.5	-16	12%
NC(Cc1c[nH]c2ccccc12)C(=O)Nc1ccccc1 (configuration not stated)	-19	·	-9	-2.9	·	-0.6%
CCS(=O)(=O)C1=NSC2=NC(=O)/C(=C\c3ccc(OC(=O)c4ccco4)c(OC)c3)C(=N)N21	-6	0.0	-8	1.7	19	-0.7%
O=C(O/N=C1\CCCc2ccccc21)C1CC1	-9	-0.3	-3	-5.9	-6	-0.1%
N#C/C(=C\c1ccc(-c2cc(Cl)ccc2Cl)o1)C(=O)Nc1ccccc1C(=O)O	·	2.9	·	·	34	1.4%
CCC(C)N(C(=O)CSc1nnnn1-c1ccccc1OC)C1CCS(=O)(=O)C1 (configuration not stated)	-1	-0.3	6	-7.0	-12	-0.6%
Cc1cc(=O)oc(C)c1C(=O)N1CCN(C(c2ccccc2)c2ccccc2)CC1	-7	0.3	19	-4.5	-6	-1.7%
Cc1nn(C)c(C)c1NC(=O)c1ccc(Cl)cc1	-5	2.9	1	-2.5	-4	-0.6%
CC1CN(c2nc(-c3ccccc3)nc3ccccc23)CC(C)O1 (configuration not stated)	-9	2.9	8	-3.4	37	0.4%[38.3 µM]
O=C(NCc1cccnc1)c1ccc(Cl)c(S(=O)(=O)N2CCOCC2)c1	10	1.6	2	-0.1	3	3.6%
N#Cc1cc2cc3c(cc2nc1N1CCOCC1)OCO3	2	3.9	8	-0.8	-5	-0.8%
COP(=O)(OC)C(=NNS(=O)(=O)c1ccc(C)cc1)c1ccccc1	-11	-0.2	4	-4.9	-3	2.0%
COc1ccc(OC)c(C2=NOC(C(=O)NCCN3CCOCC3)C2)c1 (configuration not stated)	-7	0.5	5	-0.4	-13	3.1%[38.3 µM]
Cc1cc(C)c(Nc2nc3ccccc3n3c(C)nnc23)c(C)c1	·	1.4	·	·	2	8.8%
CN(c1ccccc1)S(=O)(=O)c1ccc(Cl)c(C(=O)OCC(=O)c2c(N)n(C)c(=O)n(C)c2=O)c1	-12	-0.5	-2	-0.4	28	3.1%
CCC(=O)Nc1cccc(C2=NN(c3ccccc3)C(c3ccc(OC)cc3)C2)c1 (configuration not stated)	2	0.2	32	-3.6	-1	2.3%
CCC(C)(C)C1CCC2(CC1)NC(=S)N(c1ccccc1)N2 (configuration not stated)	-13	1.5	1	-9.7	29	4.0%

(more compounds)
SMILES	D2 PAM	TRPML1 ag	Six1-Eya2 inh	D2 ag	TRPML1 blocker	PINK1 modulator
O=C(COC(=O)CC1CC2CCC1C2)Nc1ccc(F)cc1Cl (configuration not stated)	2	-1.8	11	-1.6	20	8.8%
CCCSc1ncc(Cl)c(C(=O)NCc2ccc(C)cc2)n1	·	2.2	·	·	8	0.1%
CC(NC(=O)Cn1cccc1C(=O)c1ccccc1)c1ccc2c(c1)OCCO2 (configuration not stated)	-6	0.6	-10	-1.5	-2	-1.8%
CCOc1ccc2[nH]c(=O)c(CN(CC3COCCO3)C(=O)C3CC3)cc2c1 (configuration not stated)	-9	0.8	7	-8.0	-3	-1.1%
COc1ccc(C(=O)NNC(=O)c2ccc3ccccc3n2)cc1	18	-0.2	-4	6.6	5	-0.5%
O=C(CSc1nnc(-c2ccc(O)cc2)o1)N1CCOCC1	-1	0.8	-5	-4.1	11	0.1%
CC(C)N(C(=O)c1ccc(Cc2cn(C)c3ccccc23)nc1)C(C)C	-12	-0.7	-1	-3.2	10	2.1%
O=C(NCc1cccnc1)[C@@H]1CC=C[C@@H]2CCN(Cc3ccccc3)C(=O)[C@@H]21	-6	-0.6&-0.5	4	-2.1	-8	2.0%
O=C(O)c1cccc2c1-c1ccc([N+](=O)[O-])cc1C2=O	8	0.2	5	2.8	10	-1.8%
COCCN1C(=O)c2ccccc2C(C(=O)NCCCN2CCCC2)C1c1c[nH]c2ccccc12 (configuration not stated)	-9	-0.5	-10	-13	-5	0.2%
COc1ccc(-c2[nH]ncc2CN(C)Cc2nonc2C)c(OC)c1	-5	0.3	-6	-10	23	-1.2%
COc1ccc(-c2ccc(S(=O)(=O)N3CCOCC3)cc2)cc1	8	0.5	2	0.2	-16	2.9%[38.3 µM]
c1ccc(CNc2ncnc3c2cnn3-c2ccccc2)cc1	-7	-1.1	1	1.5	-5	5.1%
O=C(Nc1ccccc1)N1CCCc2ccccc21	18	-0.8	6	-1.7	25	1.9%
COc1ccc(OC)c(C2C(C#N)=C(N)Oc3c2c(C)nn3-c2ccc(C)cc2)c1 (configuration not stated)	6	-0.3	2	-0.7	-10	0.8%
CCOC(=O)c1cc(-c2sc(NC(=O)c3ccccc3)nc2C)n(-c2ccc(Br)cc2)n1	2	3.1	1	-1.7	68	1.9%
